TRPML1 inh = human mucolipin-1 channel inhibition. Q9GZU1. TRPML1-inducible cells, Ca2+ dye fluorescence, FDSS; active compounds read low; inhibition of EC80 agonist-evoked calcium signal. activity change, negative = inhibition, % (no concentration beside the values). 0.02% of 390,000 active; in the data active means activity change below about -50%; inconclusive means about -30% to -50%; inactive means above about -30%;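 further: stimulus is agonist 54-4 at its EC80 concentration; on the % scale 0 is the no-effect control and ±100 the full control effect; compound concentration not given in the record; the text of the record puts the active cut at -80%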
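Tet-induced TRPML1-DL cells loaded with Ca8 no-wash calcium dye were read kinetically on FDSS. Compound addition was followed by EC80 agonist 54-4 (4 uM final); inhibition was read over 110 s.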
D2 PAM = potentiates the human D2 dopamine receptor allosterically; P14416; DiscoveRx D2 beta-arrestin cells, luminescence, 90 min; 100% = 57 uM dopamine signal; potentiation, % (test concentration not listed); 0.23% of 360,000 active; AID 624464; active = potentiation of 50% or more; inconclusive = 30% to 50%; inactive = 30% or less;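 further: compound concentration not given in the record; tested on top of an EC20 dose of dopamine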
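PathHunter beta-arrestin assay in DiscoveRx D2 cells. Compounds were added with an EC20 of dopamine (50 nM final) for 90 min at 37 deg C. Luminescence was read 1 h after detection reagent, with 57 uM dopamine as the EC100 control.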
Six1-Eya2 blk = Six1/Eya2 interaction inhibition; Q15475+O00167; AlphaScreen GST-Six1/His-Eya2 binding, biochemical; active compounds read low; control for the full effect not named in the record; activity change, % (no concentration beside the values); 0.56% of 360,000 active; AID 651725; in the data active = activity change below about -65%; inconclusive = about -30% to -65%; inactive = above about -30%; further: on the % scale 0 is the no-effect control and ±100 the full control effect
Target sequence (O00167 whole entry, looked up): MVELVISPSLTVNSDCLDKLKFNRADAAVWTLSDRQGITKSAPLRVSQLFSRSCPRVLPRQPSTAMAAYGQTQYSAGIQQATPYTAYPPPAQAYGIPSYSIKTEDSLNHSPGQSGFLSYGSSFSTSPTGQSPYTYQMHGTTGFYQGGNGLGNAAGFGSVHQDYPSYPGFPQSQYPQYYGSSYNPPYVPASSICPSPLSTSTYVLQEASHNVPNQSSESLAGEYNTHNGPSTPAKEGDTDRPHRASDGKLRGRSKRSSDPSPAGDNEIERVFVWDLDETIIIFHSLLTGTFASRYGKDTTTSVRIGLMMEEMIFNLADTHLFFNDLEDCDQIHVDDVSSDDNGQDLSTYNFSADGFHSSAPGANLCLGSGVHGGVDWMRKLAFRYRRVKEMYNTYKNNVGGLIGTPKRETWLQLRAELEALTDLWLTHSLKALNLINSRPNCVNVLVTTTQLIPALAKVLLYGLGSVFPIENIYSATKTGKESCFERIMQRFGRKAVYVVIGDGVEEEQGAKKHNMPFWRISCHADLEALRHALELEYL
Target sequence (Q15475 whole entry, looked up): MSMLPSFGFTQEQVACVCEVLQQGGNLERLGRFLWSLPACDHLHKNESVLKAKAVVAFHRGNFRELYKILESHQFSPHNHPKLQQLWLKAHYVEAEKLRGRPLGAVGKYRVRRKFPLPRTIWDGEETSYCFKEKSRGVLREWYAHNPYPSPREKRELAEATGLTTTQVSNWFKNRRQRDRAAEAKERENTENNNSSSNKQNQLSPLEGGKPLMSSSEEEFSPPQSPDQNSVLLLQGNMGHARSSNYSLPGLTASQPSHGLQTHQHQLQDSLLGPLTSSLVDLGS
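Six1/Eya2 binding was read as AlphaScreen signal after compounds were pinned into GST-Six1 plus His-tagged Eya2 (5X stock 250/500 nM) in pH 8.0 Tris/NaCl/TCEP buffer, beads added, then incubated 1 h, 37 C, dark.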
TRPML1 ag = activates the human TRPML1 channel | Q9GZU1 | TRPML1-expressing cells, Ca2+ dye fluorescence, FDSS; host cell line not named in the record; reference of the full effect not given here | activation, % (test concentration not listed) | 0.12% of 410,000 active; in the data active = activation above about 50%; inconclusive = about 30% to 50%; inactive = below about 30%; further: 0% is about no effect; the text of the record puts the active cut at 80%
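In this qHTS format, compounds were pin-transferred onto Ca8-dye-loaded TRPML1-DL cells induced with Tet overnight, and intracellular Ca2+ fluorescence was recorded kinetically for 110 s after a 10 s baseline. A subsequent 4uM final 54-4 (EC80) addition followed by a second 110 s read served as the antagonist phase.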
TRPV1 PAM = human TRPV1 potentiation; AID 540277; potentiation, % at 8.33 µM; 0.02% of 320,000 active; TRPV1-expressing cells, Fluo-8 calcium influx, capsaicin EC20 potentiation; host cell line not named in the record; control for the full effect not named in the record; active means potentiation above 80%; inconclusive means 30% to 80%; inactive means below 30%; further: 0% is about no effect
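TRPV1-expressing cells were cultured overnight at 35.5C and loaded with Fluo-8 calcium dye for 40 to 90 min at room temperature. After a 10 s baseline, compound was added and calcium influx was read kinetically for 3 min (ex 480/em 520 nm).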
CtBP-E1A blk = blocks the CtBP interaction with E1A. AlphaScreen GST-E1A/His-CtBP binding, 1536-well; active compounds read low; control for the full effect not named in the record. activity change, % (no concentration beside the values). 0.49% of 340,000 active. AID 651724; in the data active means activity change below about -65%; inconclusive means about -30% to -65%; inactive means above about -30%; further: on the % scale 0 is the no-effect control and ±100 the full control effect
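Steps: dispense buffer (Tris pH 8.0, NaCl 300 mM, TCEP 1 mM, BSA, Tween 20); add 5X protein mix (GST-E1A, His-CtBP, 125 nM each); pin 23 nL compound; 2 h at 37 °C, dark; add 5X beads (50 ug/mL); 1 h; read.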
The depositor's hits bear a star; ? = inconclusive; . = not tested or not shown; & = joins results of further samples.

SMILES	TRPML1 inh	D2 PAM	Six1-Eya2 blk	TRPML1 ag	TRPV1 PAM	CtBP-E1A blk
COc1ccc(OC)c(/C=N/NC(=O)c2cc3c(OC)cccc3[nH]2)c1	32	-10	-3	2.9	-17	-21
COc1ccc(NC(=O)c2cc(-c3ccc(F)cc3OC(C)C)n[nH]2)c(OC)c1	.	3	-17	-1.1	.	-7
COc1cccc(-c2cnc(C(O)c3ccc(F)cc3C)[nH]2)c1 (configuration not stated)	-4	-19	-15	-0.6	.	-9
CCCCc1cn([C@@H](CCCCNC(=O)OC(C)(C)C)C(=O)N2CCN(C(=O)OC(C)(C)C)CC2)nn1	-8	-5	-2	0.0	-4	-22
Cc1ccccc1NC(=S)N(CCN1CCCCCC1)Cc1cccs1	?	-29	-8	6.2	-7	-3
COc1ccc(NC(=O)CN(C)C(=O)CN2C(=O)NC3(CCCCC3)C2=O)cc1	11	-2	-6	0.2	23	-2
CCN(Cc1ccccc1)C(=O)c1ccc(SC)cc1OC	11	-10	8	1.7	-1	2
O=C(NCC1COc2ccccc2O1)C1(c2ccccc2)CCCC1 (configuration not stated)	-1	-7	0	0.6	-18	0
Cc1ccc(NC(=O)CN2C(=O)NC(C)(c3ccccc3)C2=O)c(C)c1 (configuration not stated)	4	-9	-2	-0.3	4	-8
c1cc(-c2ccc(N3CCOCC3)cc2)n2cnnc2c1	.	-11	13	-0.5	.	25
CS(=O)(=O)c1ccc(C(=O)OC2CCOC2=O)cc1[N+](=O)[O-] (configuration not stated)	3	-1	-13	0.0	3	-14
Cn1c(=O)[nH]c(=O)c2c1nc(Br)n2CC(O)COc1ccccc1 (configuration not stated)	4	-4	-1	0.7	29	20
C/C(=C\c1ccccc1)C(=O)c1c(C)cc(C)[nH]c1=O	-7	-6	1	0.3	-2	.
Cc1cc(NC(=O)CCC(=O)N(CC(=O)NC2CCCC2)Cc2ccccc2Cl)no1	4	-18	-2	-0.1	-4	3
C#CCOCCOCCOCCNc1nc(N2CCN(C(=O)[C@H]([C@@H](C)CC)n3cc([C@@H](N)CO)nn3)CC2)nc(N2CCN(C(=O)[C@H](CCCCN)n3cc([C@@H](N)C(C)CC)nn3)CC2)n1 (some centres not stated)	29	-2	-7	0.4	13	-12
COc1ccc(C)cc1NC(=O)CN1C(=O)COc2ccc(S(=O)(=O)N3CCCCCC3)cc21	7&-17	-7	-2	-1.2&-0.7	8	5
COc1cccc(N2CCN(C(=O)c3ccc4ccccc4c3)CC2)c1	7	20	-13	0.3	-22	?
COc1cc(C(=O)Nc2ccc(-c3nnc(-c4ccco4)o3)cc2)cc(OC)c1OC	-21	9	-5	0.1	3	-7
Cc1c(NC(=O)c2cc(-n3cnnc3)ccc2Cl)cccc1-c1nc2ccccc2o1	-13	4	3	1.0	21	10
Cc1nn(C)cc1CN(C)C(=O)c1nn2c(c1Br)NC(c1cccs1)CC2C(F)(F)F (configuration not stated)	10	4	6	-0.9	13	5
O=C(Cc1ccccc1)NCCS(=O)(=O)N1CCN(c2cccc(Cl)c2)CC1	3	-9	-5	0.0	-10	6
O=C(O)c1cc(S(=O)(=O)N2CCCCC2)ccc1N1CCOCC1	-1	-14	1	2.5	.	6
O=C(/C=C/c1ccc([N+](=O)[O-])cc1)c1cccs1	.	-4	4	.	1	-7
COC(=O)C1=NN(C(=O)c2cccc(Br)c2)C(O)(c2ccc(Cl)cc2)C1 (configuration not stated)	13	-8	-10	21	8	.

2 entries from above, with each value named:
smiles: CCCCc1cn([C@@H](CCCCNC(=O)OC(C)(C)C)C(=O)N2CCN(C(=O)OC(C)(C)C)CC2)nn1
  TRPML1 inh: -8
  D2 PAM: -5
  Six1-Eya2 blk: -2
  TRPML1 ag: 0.0
  TRPV1 PAM: -4
  CtBP-E1A blk: -22

smiles: Cc1ccccc1NC(=S)N(CCN1CCCCCC1)Cc1cccs1
  TRPML1 inh: ?
  D2 PAM: -29
  Six1-Eya2 blk: -8
  TRPML1 ag: 6.2
  TRPV1 PAM: -7
  CtBP-E1A blk: -3

Next part
SMILES	TRPML1 inh	D2 PAM	Six1-Eya2 blk	TRPML1 ag	TRPV1 PAM	CtBP-E1A blk
O=C(N/N=C/c1cccc([N+](=O)[O-])c1)c1ccccc1-n1cccc1	-4	-8	-1	0.1	-7	.
COCCCNC(=O)CCc1nc(-c2ccccc2)no1	7	-5	-2	-0.6	-33	-1
CCC(NC(=O)c1ccccc1NC(=O)c1ccccc1)C(=O)OC (configuration not stated)	3	0	23	0.8	-10	.
O=C(CSc1nnnn1C1CC2C=CC1C2)Nc1ccc(C(=O)O)cc1 (configuration not stated)	11	-18	1	0.2	1	1
COC(=O)CNC(c1ccccc1)c1cc(Br)ccc1NC(C)=O (configuration not stated)	7	-20	-1	-0.5	-3	0
O=C(NCCS(=O)(=O)NCCc1ccccc1)c1ccccc1	23	9	0	-0.8	?	3
COc1ccccc1C1NC(=O)c2ccccc2O1 (configuration not stated)	5	-9	-6	-0.3	-2	-10
CCCCCc1c(-c2cccc(Br)c2)ncn1CCc1ccccc1OC	.	.	-14	1.8	.	-1
CCOC(=O)c1cccc(NC(=O)C2CCCN2S(=O)(=O)c2cccc3cccnc23)c1 (configuration not stated)	12	-7	-3	-0.5	-2	-1
CCOC(=O)c1cc2ccc(OC)c(OC)c2c(=O)s1	-22	28	6	-1.7	-3	8
CCOc1ncccc1C(=O)NC(C)CCc1ccccc1 (configuration not stated)	7	-2	5	-0.7	-22	1
Cc1cccc(C(CC(=O)O)n2cccc2)c1 (configuration not stated)	-9	18	4	-0.1	19	3
COc1ccc(S(=O)(=O)N2CCCCC2)cc1C(=O)N1CCCC1	-4	-8	9	-0.1	-2	1
CC(=O)c1cccc(NC(=O)CSc2nnc(C(C)N(C)C)n2-c2ccc(F)cc2)c1 (configuration not stated)	-18	-7	3	1.2	4	11
CCCc1nc2c3ccccc3ccn2c1CC1CCCCC1	.	-13	-4	0.2	.	-1
COc1ccc(Cc2nnc(NC(C)=O)s2)cc1	28	-1	1	-0.4	0	10
CCCCCn1c(=O)[nH]c2cc(C(=O)NCCN3C(C)CCCC3C)ccc2c1=O (configuration not stated)	18	-11	-2	0.2	-33	-4
CCC1CCCCN1S(=O)(=O)c1ccc(-n2cnnn2)c(C)c1 (configuration not stated)	0	-5	4	0.7	-6	-3
CCN(CC)c1ccc(NC(=O)Nc2ccccc2C(F)(F)F)cc1	38	-14	0	-0.1	7	0
COc1ccccc1C(=O)N1CCN(S(=O)(=O)Cc2ccccc2)CC1	-8	-6	1	-0.4	5	2
CCCN(CC1CC1)C(=S)Nc1ccccc1F	5	-2	6	-0.7	?	-8
CCN1C=C(C(=O)OC)C(c2cccc(OC)c2OC)C(C(=O)OC)=C1	-1	-1	7	-0.1	-19	10
COc1ccc(NC(=S)NC2CC3CCCC(C2)N3C2CC2)cc1 (configuration not stated)	-12	-12	2	-0.4	9	.
CC1CC(C)CN(C(=O)c2cn(C)c3ccc(S(=O)(=O)N(C)C)cc3c2=O)C1 (configuration not stated)	0	0	7	-0.2	.	1
O=C(CN1C(=O)CCOc2ccccc21)Nc1ccc(Cl)c(S(=O)(=O)N2CCOCC2)c1	5	12	-3	-1.2	-10	.
O=C(CSc1nnc(SCc2ccc(Cl)cc2)s1)N/N=C/c1ccccc1Cl	23	-17	-9	0.9	22	-2
CC(=O)Nc1ccc(S(=O)(=O)NC2CCCCCC2)cc1	-7	-6	3	-0.5	-2	-5
COc1ccc([C@H]2C(C(=O)O)=C[C@@H](C(C)(C)C)N2S(=O)(=O)c2ccc(C)cc2)cc1OC	-11	-4	0	0.9	.	-20
COc1ccc2[nH]cc(CCN3C(=O)CCC3=O)c2c1	-30	-9	-1	0.6	-3	3
O=C(NCCc1ccccc1Cl)C1CCC(=O)N(CC2CCCCC2)C1 (configuration not stated)	0	-14	3	1.4	-8	0
Cc1ccc(CN(C)C(=O)c2ccc(NS(=O)(=O)c3ccc4[nH]c(=O)[nH]c4c3)cc2)cc1	-3	-4	-1	-0.5	7	-3
CCOc1cccc(C(=O)NC(c2ccccc2)C(C)C)c1 (configuration not stated)	-6	-8	0	0.6	-17	7
Clc1ncc2[nH]cnc2n1	-1	-1	6	-0.2	-1	.
CC(=O)Nc1cccc(NS(=O)(=O)c2ccccc2[N+](=O)[O-])c1	-2	0	-4	-0.5	8	3
COC(=O)c1ccc(CN2CCCC(C(=O)Nc3cccc(-n4cccn4)c3)C2)cc1 (configuration not stated)	-4	-26	-14	-1.5	-18	-9
CCOc1ccccc1N(C)S(=O)(=O)c1ccc2c(c1)CCN2C(=O)CCC(=O)O	10	-10	2	1.1	-5	2
CN1CC(=O)N(CC(=O)Nc2ccc(SC(F)F)cc2)C1=O	-8	-6	2	-0.4	-4	4
Cc1cc2c3c(c1C)C1(C(=O)N3C(C)(C)CC2C)C(C#N)=C(N)OC2=C1C(=O)CC(C)(C)C2 (configuration not stated)	1	5	1	0.4	-5	8
CN1CCN(c2nc(-c3ccc(Cl)cc3)nc3ccccc23)CC1	2	-16	2	-0.8	-22	7
COc1ccc(NC(=S)N(CCN(C)C)C(C)c2ccncc2)cc1Cl (configuration not stated)	11	-5	-11	0.2	?	-17
COc1ccc(CCNC(=O)C(=O)NCC2CCNCC2)cc1OC	15	-2	2	0.5	17	7

An excerpt from further up:
SMILES	TRPML1 inh	D2 PAM	Six1-Eya2 blk	TRPML1 ag	TRPV1 PAM	CtBP-E1A blk
CC(=O)Nc1ccc(S(=O)(=O)NC2CCCCCC2)cc1	-7	-6	3	-0.5	-2	-5
COc1ccc([C@H]2C(C(=O)O)=C[C@@H](C(C)(C)C)N2S(=O)(=O)c2ccc(C)cc2)cc1OC	-11	-4	0	0.9	.	-20
COc1ccc2[nH]cc(CCN3C(=O)CCC3=O)c2c1	-30	-9	-1	0.6	-3	3
O=C(NCCc1ccccc1Cl)C1CCC(=O)N(CC2CCCCC2)C1 (configuration not stated)	0	-14	3	1.4	-8	0
Cc1ccc(CN(C)C(=O)c2ccc(NS(=O)(=O)c3ccc4[nH]c(=O)[nH]c4c3)cc2)cc1	-3	-4	-1	-0.5	7	-3
CCOc1cccc(C(=O)NC(c2ccccc2)C(C)C)c1 (configuration not stated)	-6	-8	0	0.6	-17	7
Clc1ncc2[nH]cnc2n1	-1	-1	6	-0.2	-1	.
CC(=O)Nc1cccc(NS(=O)(=O)c2ccccc2[N+](=O)[O-])c1	-2	0	-4	-0.5	8	3
COC(=O)c1ccc(CN2CCCC(C(=O)Nc3cccc(-n4cccn4)c3)C2)cc1 (configuration not stated)	-4	-26	-14	-1.5	-18	-9
CCOc1ccccc1N(C)S(=O)(=O)c1ccc2c(c1)CCN2C(=O)CCC(=O)O	10	-10	2	1.1	-5	2
CN1CC(=O)N(CC(=O)Nc2ccc(SC(F)F)cc2)C1=O	-8	-6	2	-0.4	-4	4
Cc1cc2c3c(c1C)C1(C(=O)N3C(C)(C)CC2C)C(C#N)=C(N)OC2=C1C(=O)CC(C)(C)C2 (configuration not stated)	1	5	1	0.4	-5	8

Compounds were not picked by outcome; any-hit rate near 0.95%.
